Source: PubChem (several laboratories)
TPT1 inh: inhibitors of Candida albicans tRNA 2'-phosphotransferase TPT1; recombinant caTPT1, FP RNA substrate dephosphorylation; inhibition, % at 5 µM; 300,000 tested, 0.81% active; AID 1962;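 active = inhibition above the mean of all tested compounds plus 3 SD, set per screening campaign, cut at about 24% in these data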;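 also: plate controls were DMSO alone for no effect and ferristatin control at 100 nM for full effect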
Fam108B inh: counter-screen for RBBP9 inhibitors: inhibitors of mouse Fam108B; AID 1947; inhibition, % at 9.51 µM; 300,000 tested, 0.33% active; recombinant Fam108B, FP-Rh probe fluorescence polarization;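 active = inhibition above the screen mean inhibition plus 3 SD, computed separately per campaign, cut at about 18% in these data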;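 also: inhibitors lower polarization as less probe binds the enzyme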
GSTO1 counter: counter-screen for RBBP9 inhibitors: inhibitors of human GSTO1 | 300,000 tested, 1.1% active | inhibition, % at 5.96 µM | recombinant GSTO1, activity-based probe fluorescence polarization;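 active = inhibition above the campaign mean inhibition plus 3 SD, cut at about 35% in these data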;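 also: 0% = GSTO1-1 with DMSO and 100% = wells lacking GSTO1-1 enzyme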
GLD-1 RNA inh: GLD-1-TGE RNA interaction inhibition (C. elegans). 320,000 tested, 0.44% active. inhibition, % at 5.96 µM. AID 2280. Q17339. purified GLD-1 + fluorescein TGE RNA, fluorescence polarization;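 active = percent inhibition above a per-plate cutoff, the plate mean of test compounds plus 3 SD, cut at about 30% in these data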;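 also: 0% = DMSO wells with GLD-1 and probe and 100% = wells lacking GLD-1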
PAD4 inh: PAD4 (human) enzyme inhibition; recombinant PAD4, RCA probe fluorescence polarization; inhibition, % at 6.36 µM; 330,000 tested, 0.41% active;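 active = percent inhibition above a cutoff equal to the mean of all tested compounds plus 3 SD, cut at about 15% in these data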;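 also: 0% = PAD4 with RCA probe and DMSO and 100% = probe without PAD4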
MEX-5 binding: C. elegans MEX-5 TCR-2 RNA binding activity | MEX-5/FITC-TCR2 RNA binding, fluorescence polarization; active compounds read low | activity score (negative = inhibition of binding), % at 10 µM | 300,000 tested, 0.38% active;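 active = inhibition past about -25% in most replicates, and total fluorescence under double the plate's negative control median, limit read from the data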;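 also: 0% = DMSO and -100% = 5 µM competing unlabeled TCR2 RNA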
Target sequence (Q9XUB2 whole entry, looked up): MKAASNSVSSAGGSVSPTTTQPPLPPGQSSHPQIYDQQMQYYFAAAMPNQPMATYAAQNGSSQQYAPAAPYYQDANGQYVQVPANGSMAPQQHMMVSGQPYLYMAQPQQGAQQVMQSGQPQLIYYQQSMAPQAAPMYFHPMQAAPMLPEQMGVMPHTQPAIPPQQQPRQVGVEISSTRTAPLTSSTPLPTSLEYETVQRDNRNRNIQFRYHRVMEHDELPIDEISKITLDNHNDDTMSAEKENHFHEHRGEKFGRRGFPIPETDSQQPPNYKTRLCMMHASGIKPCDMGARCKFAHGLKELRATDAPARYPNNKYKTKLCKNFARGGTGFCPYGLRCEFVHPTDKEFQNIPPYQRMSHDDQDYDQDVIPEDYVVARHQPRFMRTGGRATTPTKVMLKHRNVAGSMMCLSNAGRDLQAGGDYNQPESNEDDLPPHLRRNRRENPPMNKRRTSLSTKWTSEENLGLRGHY
PME-1 primary: PME-1 (human) inhibition. Q9Y570. recombinant PME-1, FP-Rh probe fluorescence polarization. inhibition, % at 5.9 µM. 320,000 tested, 0.53% active;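 active = inhibition above the campaign mean of all compounds plus 3 SD, cut at about 26% in these data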;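 also: competitive labeling of PME-1 active site by serine hydrolase directed probe; 0% = PME-1 with DMSO and 100% = wells lacking PME-1 enzyme; inhibitors block probe labeling so polarization falls and inhibition rises; many of its hits are not listed in these tables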
Target sequence (Q9Y570 whole entry, looked up): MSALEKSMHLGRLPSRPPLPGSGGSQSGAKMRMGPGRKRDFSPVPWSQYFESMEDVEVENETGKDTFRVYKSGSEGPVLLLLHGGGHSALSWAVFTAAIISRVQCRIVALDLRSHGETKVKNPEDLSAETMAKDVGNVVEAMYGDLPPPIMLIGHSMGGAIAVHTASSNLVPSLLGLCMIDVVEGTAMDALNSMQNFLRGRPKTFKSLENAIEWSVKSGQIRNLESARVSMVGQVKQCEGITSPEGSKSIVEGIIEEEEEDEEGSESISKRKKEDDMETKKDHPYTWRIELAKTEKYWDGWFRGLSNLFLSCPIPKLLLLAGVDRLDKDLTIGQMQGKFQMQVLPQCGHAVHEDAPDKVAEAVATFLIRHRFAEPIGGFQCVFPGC
Active calls of the source: *; x = no result given; & = joins results of further samples.

Field names – A = TPT1 inh; B = Fam108B inh; C = GSTO1 counter; D = GLD-1 RNA inh; E = PAD4 inh; F = MEX-5 binding; G = PME-1 primary
COc1ccccc1NC(C)C(=O)Nc1ccc(C(C)=O)cc1 (stereo not given)
  A = -3.4 | B = -1.7 | C = -4.6 | D = 6.2 | E = 9.3 | F = -2.4 | G = -4.1
CCOC(=O)C1=C(C)NC2=C(C(=O)CC(c3ccc(OC)c(OC)c3)C2)C1c1ccc(C)o1 (stereo not given)
  A = -1.7 | B = -3.9 | C = 2.5 | D = -0.8 | E = -1.6 | F = x | G = 0.2
CCOc1cc(/C=N\Nc2ccc([N+](=O)[O-])cc2)ccc1OCC(=O)Nc1ccc(C)c(C)c1
  A = 45.9* | B = 3.2 | C = -1.5 | D = -14.0 | E = -6.5 | F = -16.5 | G = -3.4
COc1ccc(NC(=O)CC2C(=O)N(c3ccccc3)C(=O)N2Cc2ccco2)cc1 (stereo not given)
  A = -0.7 | B = 3.2 | C = 9.0 | D = 1.7 | E = -4.1 | F = -2.0 | G = 1.2
COc1ccc(F)cc1C(=O)C1CCCN(Cc2ccc(Sc3nncn3C)o2)C1 (stereo not given)
  A = 0.8 | B = -2.9 | C = 2.5 | D = -10.1 | E = -1.3 | F = 0.7 | G = 2.7
O=C(COc1ccc(/C=N/NC(=O)c2ccc(O)cc2)cc1)Nc1ccc([N+](=O)[O-])cc1
  A = 5.6 | B = -5.8 | C = -6.6 | D = -0.8 | E = 1.5 | F = 0.1 | G = -20.5
NC(=O)CNC(=O)[C@@H]1CC2(CC(c3cccc([N+](=O)[O-])c3)=NO2)CN1C(=O)c1ccccc1 (stereo not given in full)
  A = 5.6 | B = 1.2 | C = 4.0 | D = 4.8 | E = 1.6 | F = 1.8 | G = -2.9
CC(=O)Nc1ccc(Nc2nc(C)c([N+](=O)[O-])c(Nc3ccccc3)n2)cc1
  A = -0.7 | B = 12.4 | C = -3.7 | D = 0.3 | E = -1.6 | F = -1.0 | G = 30.0*
CCC(=O)Nc1ccc(C(=O)COC(=O)c2nc3nccc(C)n3n2)cc1
  A = x | B = x | C = x | D = 8.4 | E = -4.0 | F = x | G = -6.5
Cc1ccc(NC2=C(Cl)C(=O)OC2OC(=O)c2ccco2)cc1 (stereo not given)
  A = -3.9 | B = -1.4 | C = 17.0 | D = 3.2 | E = -0.4 | F = -0.7 | G = -5.3

Other results follow.
Field names – A = TPT1 inh; B = Fam108B inh; C = GSTO1 counter; D = GLD-1 RNA inh; E = PAD4 inh; F = MEX-5 binding; G = PME-1 primary
NC(=O)[C@H]1CC2(CC(c3cccc(NC(=O)c4ccccc4)c3)=NO2)CN1C(=O)[C@H]1CCC(=O)N1 (stereo not given in full)
  A = -0.6 | B = 1.0 | C = 1.2 | D = -1.5 | E = 0.2 | F = 1.7 | G = 2.8
Cn1c(OCc2cccnc2)nc2c1c(=O)n(Cc1ccccc1)c(=O)n2C
  A = 0.4 | B = 2.4 | C = 2.1 | D = -0.9 | E = -2.9 | F = 2.3 | G = 0.9
CC1(C)[C@H](C(=O)O)N2C(=O)C[C@H]2S1(=O)=O
  A = -4.7 | B = 1.3 | C = 2.4 | D = -0.4 | E = -0.8 | F = 1.8 | G = -1.4
O=c1oc2cc(O)ccc2c2oc3cc(O)ccc3c12
  A = -3.8 | B = 9.3 | C = 39.0* | D = -1.8 | E = -4.7 | F = -0.3 | G = 26.1
COC(=O)CCC(=O)Nc1cccc([N+](=O)[O-])c1
  A = -1.0 | B = -0.5 | C = -1.5 | D = -4.0 | E = -2.9 | F = -1.7 | G = 2.7
O=S(=O)(c1ccc(Br)cc1)N1CCn2c(nc3ccccc32)C1
  A = 0.4 | B = -2.6 | C = 0.7 | D = 5.2 | E = -8.2 | F = -1.3 | G = 0.3
CC(C)(C)c1cc2nc(N)nc(N)n2n1
  A = -5.1 | B = 6.0 | C = -4.2 | D = -8.7 | E = 2.2 | F = -1.6 | G = 3.2
Clc1nc2ccccc2cc1/C=N/Nc1nc2ccccc2[nH]1
  A = 8.8 | B = 9.4 | C = -3.2 | D = 2.3 | E = -0.9 | F = -2.8 | G = 19.4
CCC(C(=O)OCCOCCN(CC)CC)c1ccccc1 (stereo not given)
  A = -3.9 | B = -0.3 | C = 5.0 | D = 1.6 | E = -2.7 | F = 0.6 | G = -1.4
CCN(CC)CCNC(=O)c1ccc(NC(C)=O)cc1
  A = -3.1&3.1 | B = 3.7&-2.0 | C = 8.8&9.8 | D = 8.2&-2.0 | E = 1.2&-1.2 | F = 3.1&-0.9 | G = -0.1&-3.9

Next results follow.
Field names – A = TPT1 inh; B = Fam108B inh; C = GSTO1 counter; D = GLD-1 RNA inh; E = PAD4 inh; F = MEX-5 binding; G = PME-1 primary
CC(O)c1cccc(NC(=O)CCCc2ccccc2)c1 (stereo not given)
  A = -1.2 | B = 3.8 | C = 22.4 | D = 2.2 | E = -3.1 | F = 1.9 | G = -14.2
CCOc1cc(/C=N/NC(=O)CN2CCOCC2)ccc1OCc1ccc(Cl)cc1
  A = 0.2 | B = -2.4 | C = 2.7 | D = 1.0 | E = 1.6 | F = -3.7 | G = -1.8
Cc1ccc(/C=C(\C#N)C(=O)Nc2cccc3ncccc23)o1
  A = -10.1 | B = 2.8 | C = 18.1 | D = 59.6* | E = 11.0 | F = 0.3 | G = 7.1
COc1cc(C)c(Cl)c(C)c1S(=O)(=O)NCc1ccc2c(c1)OCO2
  A = -3.0 | B = -2.6 | C = 2.4 | D = 1.6 | E = -2.7 | F = 0.9 | G = 12.2
CCOC1OC(=O)C(Cl)=C1Nc1ccc(C)cc1 (stereo not given)
  A = -0.6 | B = 0.5 | C = -1.6 | D = -3.7 | E = -7.3 | F = -0.2 | G = -3.9
CC(=O)c1ccc2c(c1)N(CCCN1CCC(CCO)CC1)c1ccccc1S2
  A = -2.8 | B = 2.4 | C = 9.0 | D = 6.7 | E = 3.7 | F = x | G = 5.0
COc1ccc(-n2nc(C(=O)NCc3ccco3)c3c4ccccc4n(C)c3c2=O)cc1Cl
  A = 3.0 | B = 0.8 | C = 8.2 | D = 0.0 | E = -5.1 | F = -2.4 | G = -0.4
Cc1ccc(NC(=S)NNC(=O)Cn2nc(C(F)F)cc2C(F)F)cc1
  A = -6.8 | B = 5.9 | C = 3.0 | D = 0.7 | E = 3.5 | F = 1.1 | G = -3.1
O=C(Nc1ccc2oc(-c3ccc(Cl)c(Cl)c3)nc2c1)c1ncn[nH]1
  A = -3.9 | B = -2.7 | C = -15.9 | D = 4.8 | E = 2.8 | F = -1.3 | G = -7.6
CC1(C)CCCC(C)(C)N1CC(O)COCCOc1ccc(Br)cc1 (stereo not given)
  A = -0.1 | B = -2.1 | C = -3.2 | D = 3.0 | E = 1.1 | F = 1.5 | G = 0.0

Nothing new here: entries from further up.
Field names – A = TPT1 inh; B = Fam108B inh; C = GSTO1 counter; D = GLD-1 RNA inh; E = PAD4 inh; F = MEX-5 binding; G = PME-1 primary
O=C(Nc1ccc2oc(-c3ccc(Cl)c(Cl)c3)nc2c1)c1ncn[nH]1
  A = -3.9 | B = -2.7 | C = -15.9 | D = 4.8 | E = 2.8 | F = -1.3 | G = -7.6
CC1(C)CCCC(C)(C)N1CC(O)COCCOc1ccc(Br)cc1 (stereo not given)
  A = -0.1 | B = -2.1 | C = -3.2 | D = 3.0 | E = 1.1 | F = 1.5 | G = 0.0

More results
Field names – A = TPT1 inh; B = Fam108B inh; C = GSTO1 counter; D = GLD-1 RNA inh; E = PAD4 inh; F = MEX-5 binding; G = PME-1 primary
CCOC(=O)c1cc(C#N)c(N2CCN(c3ccccn3)CC2)nc1-c1ccccc1
  A = -9.9 | B = 0.8 | C = 8.3 | D = 6.5 | E = -1.9 | F = 4.3 | G = -2.8
CCOCc1[nH]c(=S)[nH]c(=O)c1Cc1ccc(OCC)cc1
  A = 0.9 | B = -1.4 | C = 13.2 | D = 0.6 | E = 1.8 | F = 2.3 | G = 2.4
COc1ccc(N=Cc2oc3ccc4ccccc4c3c2O)cc1
  A = 114.1* | B = 3.0 | C = 17.3 | D = -49.8 | E = -6.2 | F = -4.5 | G = 19.5
N#CCCSCc1ccc2oc(C(=O)O)cc2c1
  A = -0.5 | B = 1.2 | C = 3.1 | D = 0.0 | E = 1.4 | F = 1.5 | G = -6.8
CC(C)C(=O)c1c(C(C)C)nn2ccccc12
  A = 0.9 | B = 0.3 | C = 1.5 | D = 7.1 | E = 0.1 | F = 0.4 | G = 1.9
O=C(Cn1c2ccccc2c(=O)c2ccccc21)N/N=C/c1ccc(N2CCCC2)c([N+](=O)[O-])c1
  A = -2.0 | B = 0.5 | C = 9.1 | D = 8.4 | E = 1.5 | F = 0.5 | G = 0.9

As entered above:
For PME-1 primary, O=c1oc2cc(O)ccc2c2oc3cc(O)ccc3c12 is entered as 26.1
For Fam108B inh, NC(=O)CNC(=O)[C@@H]1CC2(CC(c3cccc([N+](=O)[O-])c3)=NO2)CN1C(=O)c1ccccc1 (stereo not given in full) is entered as 1.2
For GLD-1 RNA inh, CCOc1cc(/C=N\Nc2ccc([N+](=O)[O-])cc2)ccc1OCC(=O)Nc1ccc(C)c(C)c1 is entered as -14.0

This is a subset; count on the stated rates, not on these rows.
